# Anaer choline gr: growth inhibitors of anaerobic choline-fed gram-negatives, minimal medium, absorbance. Gram-negative bacterium anaerobic choline minimal medium; active compounds read low; many inactives read as strong as hits in the columns shown. calls only. actives 0.2% (n = 55,000). AID 1963822, 2024;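 active means growth z-score on choline under -2 at 7 or 20 h with little or no fall on glycerol, limits in tiers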;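 further: stock transfer was 300 nL into about 50 µL; the organism is E. coli; final concentration not given here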
# Anaer choline gr early: second read-out of Anaer choline gr, no call of its own (marks repeat the call); z-score; measured here: choline growth z-score, timepoint 1;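 score of optical density at 7 h as mean of two plates; lower means less growth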
# Numbers without * were called inactive; i = inactive; & = joins results of further samples.
Cc1cc(N(C)C)nc(N2CCN(S(=O)(=O)c3ccc4c(c3)Cc3ccccc3-4)CC2)n1
  Anaer choline gr = i; Anaer choline gr early = -0.36

CCn1nc(C)c(-c2cc(C(=O)O)[nH]n2)c1C
  Anaer choline gr = i; Anaer choline gr early = 0.19

CCc1ccc(S(=O)(=O)N2CCOc3ccc(COCc4ccccc4F)cc3C2)cc1
  Anaer choline gr = i; Anaer choline gr early = 1.9

CCOC(=O)C1CCN(C(=O)Cc2ccc(NC(=O)N3CCCCc4ccccc43)cc2)CC1
  Anaer choline gr = i; Anaer choline gr early = 0.05

CCCCNc1nc2c(S(=O)(=O)c3ccccc3)nnn2c2ccsc12
  Anaer choline gr = i; Anaer choline gr early = 0.8

Cc1cc(C(=O)NC2CC2)on1
  Anaer choline gr = i; Anaer choline gr early = -0.06

CCC(=O)Nc1ccccc1-c1nnc(SC(C)C(=O)Nc2c(C)cc(C)cc2C)[nH]c1=O (stereo not given)
  Anaer choline gr = i; Anaer choline gr early = -0.86

COc1cc(OC)cc(-c2cc3cnc(N)nc3nc2NC(=O)NC(C)(C)C)c1
  Anaer choline gr = i; Anaer choline gr early = 0.45

CCOc1ccc(-c2cc(C(=O)Nc3nccs3)no2)cc1
  Anaer choline gr = i; Anaer choline gr early = -1.9

CCOc1cccc(C2c3cccn3-c3c(c(C)nn3-c3ccccc3)CN2C(=O)NC)c1 (stereo not given)
  Anaer choline gr = i; Anaer choline gr early = 0.96

CC(C)(C)NC[C@H](O)COc1nsnc1N1CCOCC1
  Anaer choline gr = i; Anaer choline gr early = 1.3&0.03&0.55

CC(C)C(=O)Nc1ccc([N+](=O)[O-])c(C(F)(F)F)c1
  Anaer choline gr = i; Anaer choline gr early = 0.7&0.2&-0.87

Cc1ccc(CNS(=O)(=O)c2cc(-c3nnc(C4CC4)o3)cs2)o1
  Anaer choline gr = i; Anaer choline gr early = -0.43

O=C(CCc1ccc(O)cc1)c1c(O)cc(O)cc1O
  Anaer choline gr = i; Anaer choline gr early = -1

CCOc1ccc(-c2nonc2NC(=O)C(C)C)cc1C
  Anaer choline gr = i; Anaer choline gr early = 0.56

CC(C)C12CN3CC(C(C)C)(CN(C1)C3c1ccc(O)cc1O)C2=O (stereo not given)
  Anaer choline gr = i; Anaer choline gr early = 0.41

CCOc1ccc(-c2noc(CSc3nc4cc5c(cc4c(=O)n3CC)OCO5)n2)cc1
  Anaer choline gr = i; Anaer choline gr early = -0.94

COc1cccc(C2C3=C(CC(c4ccc(O)cc4)CC3=O)Nc3onc(C)c32)c1OC (stereo not given)
  Anaer choline gr = i; Anaer choline gr early = -0.31

NC(=O)Cn1cnc2nc(N3CCCCC3)sc2c1=O
  Anaer choline gr = i; Anaer choline gr early = 0.7

CNC(=O)c1ccc(-c2nc3cc(NS(=O)(=O)c4ccccc4F)ccc3n2C)cc1
  Anaer choline gr = i; Anaer choline gr early = 0.08

CCc1onc(C)c1C1CCCN1C(=O)c1c(C)noc1C (stereo not given)
  Anaer choline gr = i; Anaer choline gr early = 0.09

Cc1ccc2ccc3cc(C(=O)NCCC(C)C)nc3c2[nH]1
  Anaer choline gr = i; Anaer choline gr early = -0.27

CC(C)CNC(=O)N1CCC(N2CCN(Cc3cccc(F)c3)C(=O)C2=O)CC1
  Anaer choline gr = i; Anaer choline gr early = -0.48

O=C(NCc1ccc(Br)cc1)C1CCN(c2ncnc3c2oc2ccccc23)CC1
  Anaer choline gr = i; Anaer choline gr early = 0.1

O=C(NCc1ccc(F)cc1)C1CCCN(c2ccncc2)C1 (stereo not given)
  Anaer choline gr = i; Anaer choline gr early = -0.26

COc1cc(C2Nc3ccc(F)cc3[C@H]3OCCC[C@@H]23)cc(I)c1OC (stereo not given in full)
  Anaer choline gr = i; Anaer choline gr early = 0.75

CCn1cnc2c(=O)oc3ccc(S(=O)(=O)Nc4ccc(OC)cc4)cc3c21
  Anaer choline gr = i; Anaer choline gr early = 0.89

O=C(C1CCCCN1S(=O)(=O)c1ccc(F)cc1)N1CCc2ccccc21 (stereo not given)
  Anaer choline gr = i; Anaer choline gr early = 0.61

COC(=O)CN1c2ccccc2S(=O)(=O)c2ccccc21
  Anaer choline gr = i; Anaer choline gr early = -1.5

CC[C@H]1[C@@H]2C=C[C@@H]3[C@H]4C/C=C\C(=O)NCCC[C@@H]5NC(=O)C(=C5O)C(=O)CC[C@@H]4C[C@@H]3[C@H]2C[C@H]1C
  Anaer choline gr = i; Anaer choline gr early = 0.56

# One compound at a time, from the list above. Values in the order: Anaer choline gr, Anaer choline gr early
# Shown for CCOC(=O)C1CCN(C(=O)Cc2ccc(NC(=O)N3CCCCc4ccccc43)cc2)CC1 : i, 0.05
# Shown for CCc1ccc(S(=O)(=O)N2CCOc3ccc(COCc4ccccc4F)cc3C2)cc1 : i, 1.9
# Shown for CCOc1ccc(-c2cc(C(=O)Nc3nccs3)no2)cc1 : i, -1.9

# Continued.
Cn1nc(-c2nc(C3CC3)no2)c2c1CCN(S(=O)(=O)c1ccccc1)C2
  Anaer choline gr = i; Anaer choline gr early = 0.66

N[C@@H]1CONC1=O
  Anaer choline gr = i; Anaer choline gr early = 0.89&0.93

O=C(c1cc(-c2ccccn2)n[nH]1)N1CCCC(C(=O)N2CCc3ccccc3C2)C1 (stereo not given)
  Anaer choline gr = i; Anaer choline gr early = 1.4

COc1ccc2cc(CCC(C)=O)ccc2c1
  Anaer choline gr = i; Anaer choline gr early = 0.27&0.34&-0.18

CCOc1c(Nc2cc(OC)cc(OC)c2)c(=O)c1=O
  Anaer choline gr = i; Anaer choline gr early = -0.49

Cc1nc2ccccc2n1CCNC(=O)C(C)C
  Anaer choline gr = i; Anaer choline gr early = -0.68

CCn1nc(C)c(CCNC(=O)Cn2c(=O)c(=O)n(C)c3ncccc32)c1C
  Anaer choline gr = i; Anaer choline gr early = 0.46

CC(=O)N[C@@H](CSC/C=C(\C)CC/C=C(\C)CC/C=C(\C)CCC=C(C)C)C(=O)O
  Anaer choline gr = i; Anaer choline gr early = 0.34

CCS(=O)(=O)c1ncc(Cl)c(C(=O)Nc2sc3c(c2C(N)=O)CCCC3)n1
  Anaer choline gr = i; Anaer choline gr early = -0.07

COc1ccc(Cn2ncc3ccc(C(=O)NC4CCCC4)cc32)cc1
  Anaer choline gr = i; Anaer choline gr early = -0.83

Cc1ccc(-c2ccc(N3CCOCC3)nn2)cc1S(=O)(=O)N1CCOCC1
  Anaer choline gr = i; Anaer choline gr early = -1.9

Cn1c(=O)c(-c2noc(CCC(=O)Nc3cccnc3Cl)n2)nn(-c2ccc(F)cc2)c1=O
  Anaer choline gr = i; Anaer choline gr early = 0.59

Cc1nnc2ccc(-c3noc(-c4ccc5c(c4)OCO5)n3)cn12
  Anaer choline gr = i; Anaer choline gr early = -0.88

COc1cccc(C(=O)Nc2cccc(N3CCCS3(=O)=O)c2)c1OC
  Anaer choline gr = i; Anaer choline gr early = -1

CNC(=O)C1CCC(Cn2c(=O)c3sccc3n(CC(=O)NC3CCCC3)c2=O)CC1 (stereo not given)
  Anaer choline gr = i; Anaer choline gr early = -0.91

CCOC(=O)CNC(=O)n1nc(C)c2ccccc21
  Anaer choline gr = i; Anaer choline gr early = -0.24

CCCCNC(=O)CCc1c(C)nc2c(c(C)nn2-c2ccc(C)c(C)c2)c1C
  Anaer choline gr = i; Anaer choline gr early = -1.2

CC(C)Cc1cc(-c2nn3c(-c4ccc(F)cc4)nnc3s2)n[nH]1
  Anaer choline gr = i; Anaer choline gr early = 0.23

CC(C)NC(=O)c1ccc2c(=O)n(CCc3ccccc3)c(SCc3cccc(F)c3)nc2c1
  Anaer choline gr = i; Anaer choline gr early = 0.56

CNC(=O)c1ccc(-c2nc(CN3CCN(C(=O)Nc4cc(OC)cc(OC)c4)CC3)c(C)o2)cc1
  Anaer choline gr = i; Anaer choline gr early = 0.98

Cc1ccc(OCc2cc(=O)n3cc(C)sc3n2)cc1
  Anaer choline gr = i; Anaer choline gr early = -0.32

N#CC1=CN(c2cc(F)ccc2F)c2cc(F)ccc2S1(=O)=O
  Anaer choline gr = i; Anaer choline gr early = -0.53

Cc1nn(-c2ccc3nncn3n2)c2c1C(c1ccsc1)CC(=O)N2 (stereo not given)
  Anaer choline gr = i; Anaer choline gr early = 0.99

Cc1cccc(C)c1-n1nnnc1C1(N(C)C)CCCC1
  Anaer choline gr = i; Anaer choline gr early = -1.1

COc1ccc(COc2ccc(=O)n(-c3ccc(C(=O)NC4CCCC4)cc3)n2)cc1
  Anaer choline gr = i; Anaer choline gr early = 0.42

Cc1cc(C)c(-c2nc(C(N)=O)c3c(n2)n(-c2ccc(C)c(C)c2)c(=O)n3C)c(C)c1
  Anaer choline gr = i; Anaer choline gr early = -0.39

O=C(Nc1cccnc1)c1c(-c2ccccc2)c(-c2ccccc2)n[nH]c1=O
  Anaer choline gr = i; Anaer choline gr early = -0.12

CC(C)C(=O)Nc1cc(-c2ccccc2F)nn1-c1ccccc1
  Anaer choline gr = i; Anaer choline gr early = 1.1

Cc1cc(=O)c2cc(C(=O)Nc3ccccc3)ccc2[nH]1
  Anaer choline gr = i; Anaer choline gr early = -1.1

CS(=O)(=O)Nc1ccc(-c2noc(-c3cnccn3)n2)cc1
  Anaer choline gr = i; Anaer choline gr early = -2.2

# Entries listed so far containing fluorine:
CCc1ccc(S(=O)(=O)N2CCOc3ccc(COCc4ccccc4F)cc3C2)cc1
  Anaer choline gr = i; Anaer choline gr early = 1.9

CC(C)C(=O)Nc1ccc([N+](=O)[O-])c(C(F)(F)F)c1
  Anaer choline gr = i; Anaer choline gr early = 0.7&0.2&-0.87

CNC(=O)c1ccc(-c2nc3cc(NS(=O)(=O)c4ccccc4F)ccc3n2C)cc1
  Anaer choline gr = i; Anaer choline gr early = 0.08

CC(C)CNC(=O)N1CCC(N2CCN(Cc3cccc(F)c3)C(=O)C2=O)CC1
  Anaer choline gr = i; Anaer choline gr early = -0.48

O=C(NCc1ccc(F)cc1)C1CCCN(c2ccncc2)C1 (stereo not given)
  Anaer choline gr = i; Anaer choline gr early = -0.26

COc1cc(C2Nc3ccc(F)cc3[C@H]3OCCC[C@@H]23)cc(I)c1OC (stereo not given in full)
  Anaer choline gr = i; Anaer choline gr early = 0.75

O=C(C1CCCCN1S(=O)(=O)c1ccc(F)cc1)N1CCc2ccccc21 (stereo not given)
  Anaer choline gr = i; Anaer choline gr early = 0.61

Cn1c(=O)c(-c2noc(CCC(=O)Nc3cccnc3Cl)n2)nn(-c2ccc(F)cc2)c1=O
  Anaer choline gr = i; Anaer choline gr early = 0.59

CC(C)Cc1cc(-c2nn3c(-c4ccc(F)cc4)nnc3s2)n[nH]1
  Anaer choline gr = i; Anaer choline gr early = 0.23

CC(C)NC(=O)c1ccc2c(=O)n(CCc3ccccc3)c(SCc3cccc(F)c3)nc2c1
  Anaer choline gr = i; Anaer choline gr early = 0.56

N#CC1=CN(c2cc(F)ccc2F)c2cc(F)ccc2S1(=O)=O
  Anaer choline gr = i; Anaer choline gr early = -0.53

CC(C)C(=O)Nc1cc(-c2ccccc2F)nn1-c1ccccc1
  Anaer choline gr = i; Anaer choline gr early = 1.1

# Only part of the results is shown, so the mix of outcomes need not match the whole.
